LT uptake inh: anthrax lethal toxin internalization inhibition; Cells, anthrax lethal toxin internalization, FRET ratio (460/530); Potency, µM (highest dose often 40 µM), for the others: at the highest dose activity change, negative = inhibition, usual class: inhibitors; hit rate 0.67% among 70,000; AID 912; active = well fitted falling ratio curve with the 530 nm signal flat; inconclusive = other ratio curves, or a change in one channel alone; inactive = flat curves in the ratio and both channels; the % refers to the ratio; also: % is scaled to controls: 0 for no effect and ±100 for the full control effect; nearly all actives have a fitted effect of over 50% in size; tested in ME-180 cells; beta-lactamase reporter
Prx2 Sm inh: Schistosoma mansoni Prx2 inhibition. AID 448. hit rate 0.07% among 65,000. Potency, µM. S. mansoni Prx2 activity coupled to TGR/GSH (TGR is thioredoxin glutathione reductase), NADPH fluorescence loss, qHTS; some inactives read as strong as hits; active means full or partial inhibition curve with a strong effect at the top dose; inconclusive means weaker partial or single-point curve; inactive means no accepted curve; also: series up to 57 µM; many of its hits are not listed in these tables
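qHTS, coupled TGR/Prx2 format; 15 min compound preincubation at RT; reaction started with H2O2 (2.5 mM aliquot); kinetic NADPH fluorescence decrease, ex 365/em 450 nm.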
* marks the source's active call; other numbers are inactive results; ? = inconclusive; · = not tested or not shown; & = joins results of further samples; [ ] = dose if it differs, or a comment. Potency is read from the fitted curve at half-maximal effect.

SMILES | LT uptake inh | Prx2 Sm inh
CCOC(=O)C1C2C=CC3(CN(c4cccc(Cl)c4)C(=O)C13)O2 (stereo not given) | 3.8% | >57
O=C(CCSCCC(=O)NCC1CCCO1)NCC1CCCO1 (stereo not given) | 6.1% | >57
COc1cc(-c2csc(N3CCOCC3)n2)cc(OC)c1OC | 6.2% | >57
Cn1c(=O)c(=O)n(C)c2cc(S(=O)(=O)N3CCCCC3)ccc21 | 0.0% | >57
C[C@]12N[C@H](Cc3ccccc31)c1ccccc12 | -1.9%&2.8% | >57&>57
Cc1ccc(SCC(=O)N(Cc2nc(-c3ccccc3)no2)C(C)C)cc1 | -15.0% | >57
c1ccc(CN2CCC(N3CCN(Cc4ccc5c(c4)OCO5)CC3)CC2)cc1 | ? | ·
CCC(=O)Nc1cc(NC(=O)CSc2nnc(C(C)C)n2CC)ccc1C | -8.1% | >57
COc1ccc(NC(=O)N2CC[C@@]3(CCCN(C(=O)c4cccc(F)c4)C3)C2)cc1 | -4.9% | >57
CCOC(=O)CCc1c(C)n(CC)c2ncnn2c1=O | -3.2% | >57
CC(NC(=O)NC1CCCCC1)C(c1cccs1)N1CCOCC1 (stereo not given) | -6.8% | >57
CC1CCc2sc3c(c2C1)c1ncnn1c(=O)n3CC(=O)c1ccc(Br)cc1 (stereo not given) | 2.9% | >57
COc1ccc(S(=O)(=O)N2CCN(Cc3ccc(Cl)cc3)CC2)cc1 | -17.1% | >57
CC1(C)CN=C(NC2CCCCC2)S1 | ? | ·
COc1cccc(-c2cc(C(=O)Nc3ccc(OC)c(OC)c3)no2)c1 | -13.4% | >57
O=C1CC(c2cccnc2)c2cc3c(cc2N1)OCCO3 (stereo not given) | 24.9% | >57
Cc1cccc(C)c1NC(=O)C1CCCNC1 (stereo not given) | -18.3% | >57
CCn1c(=O)c(C(=O)Nc2cnccn2)c(O)c2ccccc21 | -14.6% | >57
CN(C(=O)c1ccncc1)c1nnc(-c2cnccn2)s1 | -7.4% | >57
C/C(O)=C(/C#N)C(=O)Nc1cc(Br)ccc1Br | -25.2%&4.2% | >57&>57
O=C(Cc1cn2ccsc2n1)NCc1ccccc1 | -1.8% | >57
O=C(NCCSCc1c(F)cccc1Cl)c1ccco1 | -0.7% | >57
Cc1noc(C)c1CSc1ccccc1C(=O)Nc1nccs1 | -3.0% | >57
O=C(Nc1ccc(Cl)cc1C(=O)NCc1cccnc1)c1ccco1 | 4.5% | >57
O=C(c1cnccn1)N1CCc2ccccc21 | 10.5% | >57

A draw from above in order of number of heavy atoms, lowest first.
SMILES | LT uptake inh | Prx2 Sm inh
Cn1c(=O)c(=O)n(C)c2cc(S(=O)(=O)N3CCCCC3)ccc21 | 0.0% | >57
CC(NC(=O)NC1CCCCC1)C(c1cccs1)N1CCOCC1 (stereo not given) | -6.8% | >57
COc1ccc(NC(=O)N2CC[C@@]3(CCCN(C(=O)c4cccc(F)c4)C3)C2)cc1 | -4.9% | >57

Next entries
SMILES | LT uptake inh | Prx2 Sm inh
CN1CCN(C(CNS(=O)(=O)c2ccc(F)cc2)c2cccnc2)CC1 (stereo not given) | 13.5% | >57
Cc1cccc2cc(COC(=O)c3ccccn3)c(=O)[nH]c12 | -4.2% | >57
O=C(CSc1nnc(-c2cnccn2)n1Cc1ccco1)c1ccc(Cl)c(Cl)c1 | ? | >57
Cc1nn2c(-c3ccccc3)c(-c3ccccc3)nc2[nH]c1=O | ? | >57
COc1cccc(NC(=O)Cn2cc3c(n2)CCCCC3)c1 | -18.4% | >57
CC(C)Cn1cnc2c1c(=O)n(CC(=O)Nc1ccc3c(c1)OCO3)c(=O)n2Cc1ccccc1 | -8.2% | >57
CC(C)(C)c1csc(NC(=O)CSc2nc3ccccc3c(=O)[nH]2)n1 | -4.1% | >57
COCON1C(=O)CN(C(C)=O)C1c1ccc(Cl)cc1Cl (stereo not given) | -2.9% | >57
COc1ccc(NC(=O)NS(=O)(=O)c2ccc(C)cc2)c(OC)c1 | -5.7% | >57
Cn1c(CN2CCC(C(N)=O)CC2)c(C#N)c2ccccc21 | -7.8% | >57
Cc1cc2c3c(c1)C1(C(=O)N3C(C)(C)CC2C)C(C#N)=C(N)Oc2n[nH]c(C)c21 (stereo not given) | · | >57
COc1ccc(CNc2ccnc(-c3c(C)noc3C)n2)c(OC)c1 | 3.7% | >57
CS(=O)(=O)N1CCN(C(=O)C(Sc2ccccc2)c2ccccc2)CC1 (stereo not given) | ? | >57
CC(c1ccco1)N(C(=O)COc1ccc(Cl)cc1Cl)c1ccccn1 (stereo not given) | ? | >57
O=C(Nc1ccccc1)N1CC2(CCN(C(=O)c3cc(C(F)(F)F)cc(C(F)(F)F)c3)CC2)C1 | -1.0% | >57
N#Cc1nc(COc2ccccc2F)oc1NCCc1ccccc1 | ? | >57
Cc1nc(CN2CCN(C(=O)NC3(c4ccccc4)CC3)CC2)cs1 | 0.7% | >57
CC(=O)c1cccc(NC(=O)c2cnn3ccccc23)c1 | 13.4% | >57
O=C(COC(=O)c1cccs1)NCc1ccccc1 | 17.5% | >57
COc1ccc(Cl)cc1NC(=O)CN(C1CCCCC1)S(C)(=O)=O | 7.6% | >57
CCn1cc(/C=C(/C#N)S(=O)(=O)c2ccccc2)cn1 | -20.6% | >57
Cc1ccc(S(=O)(=O)NCC(=O)NC2CCCCCC2)cc1 | -10.7% | >57
Fc1ccc(CN2CCCCCCC2)cc1F | -7.9% | ·
CCOC(=O)C1CCCN(CCC(=O)Nc2c(C(=O)OC)[nH]c3cc(OC)ccc23)C1 (stereo not given) | -7.3% | >57
Cn1cccc1C(=O)N1CCC[C@@]2(CCN(Cc3ccc(C#N)cc3)C2)C1 | ? | >57

Continued.
SMILES | LT uptake inh | Prx2 Sm inh
Cc1cc(C)n(-c2nc3ccccc3nc2Nc2ccc3[nH]c(=O)[nH]c3c2)n1 | -16.7% | >57
Cc1ccc(OCCn2nc3ccccc3n2)c(C)c1 | -11.6% | >57
CN(C)C(=O)c1ccc(-c2cc(Nc3ccccc3)ncn2)cc1 | -4.6% | >57
Cc1cc2c(cc(C(=O)OCC(=O)NCc3cccs3)n2C(C)C)o1 | ? | >57
O=[N+]([O-])c1ccc(O[C@H]2O[C@@H](CO)[C@@H](O)[C@@H](O)[C@@H]2F)c([N+](=O)[O-])c1 | 13.8% | >57
O=C(O)c1cc(N=Nc2ccc([As](=O)(O)O)cc2)ccc1O | ? | ·
Cc1ccc(Nc2nc(C(=O)N3CCC(C(=O)NCCN4CCOCC4)CC3)cs2)cc1 | -4.5% | >57
CCOC(=O)C(C)Oc1cc(C)cc2oc(=O)c3c(c12)CCCC3 (stereo not given) | 5.2% | >57
O=C(CSc1ccc(Cl)cc1)N1CCOCC1 | -4.9% | >57
COC(=O)Cc1c(C)nc2nc(-c3cccnc3)[nH]n2c1=O | 2.1% | >57
O=C(Cn1cccc1)Nc1ccc(F)cc1F | 16.5% | >57
Cc1ccc(C(=O)Cn2c(NCCO)nc3ccccc32)cc1 | 1.9% | >57
CCCCNC(=O)CSc1nccn1Cc1ccccc1 | -3.7% | ·
CC(=O)c1cccc(NC(=O)COc2ccccc2)c1 | 11.1% | >57
CNc1nc(Nc2ccc(C(C)=O)cc2)nc(OC(C(F)(F)F)C(F)(F)F)n1 | 10µM* | >57
O=C1c2c(O)cc(O)cc2O[C@@H](c2ccc(O)c(O)c2)[C@H]1O | 1.8% | >57
O=C(NCc1cccnc1)Nc1ccc(F)cc1F | ? | >57
COc1ccc(S(=O)(=O)N2CCC(C(=O)c3ccc4c(c3)OCCO4)CC2)cc1 | -20.4% | >57
CN(C)C(=O)[C@H]1C[C@@H]1[C@H](NC(=O)OCc1ccccc1)c1ccccc1 | -12.7% | ·
O=C(O)COCCN1CCN([C@@H](c2ccccc2)c2ccc(Cl)cc2)CC1 | 7.0%[3.58 µM] | >57
OB(O)c1ccc(Cl)s1 | -3.4% | ·
CC1(C(=O)NC2CCCC2)CCC(=O)N1CCC1=CCCCC1 (stereo not given) | -24.6% | >57
Cc1cc(=O)[nH]c(SCC(=O)Nc2nnc(CC(C)C)s2)n1 | 8.4% | >57
C=CCNc1nc2c(c(=O)n(C)c(=O)n2C)n1Cc1ccc(F)cc1 | 9.9% | >57
O=C1c2cccnc2C(Nc2ccc(S(=O)(=O)N3CCCCC3)cc2)N1Cc1ccccc1 (stereo not given) | ? | >57

Next part:
SMILES | LT uptake inh | Prx2 Sm inh
CCNC(=O)CC1C(=O)N(c2ccccc2)C(=O)N1Cc1ccc(OC)cc1 (stereo not given) | ? | >57
O=C(O)c1ccc(COc2c(F)c(F)cc(F)c2F)cc1 | 11.5% | >57
CCN1CCN(Cc2ccc3c(c2)Cc2ccccc2-3)CC1 | -8.4% | ·
COc1cccc(-c2cc(C(F)(F)F)n3ncc(C(=O)NCC4CCCO4)c3n2)c1 (stereo not given) | -1.4% | >57
CCCNC(=O)C(Cc1ccccc1)NS(=O)(=O)c1cccc2nsnc12 (stereo not given) | 1.6% | >57
COc1ccccc1CCn1c(=O)c(-c2cc(F)cc(F)c2)nc2cncnc21 | -18.6% | >57
O=C(NCc1cccs1)c1ccncc1 | ? | >57
CCCN(CCC)C(=O)C1c2ccccc2Oc2ccccc21 | -4.8% | ·
O=C1CC(N2CCN(c3ccccc3Cl)CC2)C(=O)N1c1cccc(F)c1 (stereo not given) | -4.4% | >57
C[C@@H]1CC[C@H]2[C@H](C)[C@H]3[C@H](C[C@H]4[C@@H]5CC=C6C[C@@H](O)CC[C@@]6(C)[C@@H]5C[C@@H](O)[C@]34C)N2C1 | 13.1%[8 µM] | >57
CC(=O)O[C@]1(C)N=NC2(CCCCC2)O1 | -4.2%[8 µM] | >57
CCN(C1CCCCC1)S(=O)(=O)c1ccc(S(=O)(=O)NCCc2ccncc2)cc1 | 27.1% | >57
COc1ccc(C2c3c(oc4ccccc4c3=O)C(=O)N2c2ccccn2)cc1 (stereo not given) | -3.5% | ·
CCOC(=O)N1CCC(NC(=O)CSCc2nc(-c3ccc(OC)c(OC)c3)oc2C)CC1 | -9.8% | >57
O=C(c1ccc(NC2=NC3CS(=O)(=O)CC3S2)cc1)N1CCN(C(=O)c2ccco2)CC1 (stereo not given) | -4.8% | >57
Cn1cc(CN2CCc3ccccc3C2)c2ccccc21 | ? | >57
Cc1ccc(NC(=O)C2CCN(C(=O)NC3CCCCC3)CC2)cc1Cl | -5.3% | >57
CCN(CC)c1cccc(OCC(=O)N(C)CCC#N)c1 | ? | >57
Cc1csc2ncc(C(=O)Nc3ccccc3F)c(=O)n12 | -19.4% | >57
O=C(NCc1cccs1)c1cc2c(s1)CCCC2 | -7.5% | >57
CS(=O)(=O)NCc1nnc(SCc2ccccc2C(F)(F)F)o1 | 7.7% | >57
COc1ccc(NC(=O)c2sc(SC)nc2N)cc1 | 3.5% | >57
O=C(Nc1ccccc1)N1CC[C@@]2(CCCN(C(=O)c3cnccn3)C2)C1 | -4.2% | >57
CC(C)C(=O)Nc1cccc(NC(=O)c2cccnc2)c1 | · | >57
O=C(CCN1C(=O)c2ccccc2C1=O)Nc1ccc(-c2nc3ccccc3o2)cc1 | · | >57

Further entries:
SMILES | LT uptake inh | Prx2 Sm inh
CCn1nnnc1-c1ccc(OC)c(S(=O)(=O)Nc2ccc(C(=O)OC)cc2)c1 | -6.2% | >57
O=C(COC(=O)c1ccc(NS(=O)(=O)c2ccc3c(c2)OCCO3)cc1)NCC1CCCO1 (stereo not given) | -12.5% | >57
CCS(=O)(=O)Nc1ccc(Cc2ccncc2)cc1 | · | >57
CCc1ccc2oc(-c3cc(N)ccc3O)nc2c1 | ? | >57
Clc1ccc(C(c2ccc(Cl)cc2)C(Cl)(Cl)Cl)cc1 | 6.31µM* | ·
CCOC(=O)C1CCCN(C(=O)C2CCN(S(=O)(=O)CC)CC2)C1 (stereo not given) | -2.5% | >57
CN(C)c1ccc(C2N(c3ccc(Cl)cc3)C(=O)C3CCCN32)cc1 (stereo not given) | 3.9% | >57
COc1cc(OC)cc(-n2nnnc2SCC(=O)NCc2ccc3c(c2)OCO3)c1 | 15.5% | >57
Cn1c(-c2ccccc2)cnc1SCC(N)=O | -12.9% | >57
COc1ccc2[nH]c(C)c(C(=O)CN(C)C)c2c1 | -25.4% | >57
Nc1nc(Cn2nnc(-c3ccccc3F)n2)nc(N2CCOCC2)n1 | 19.8% | >57
O=C(CCCC(=O)N(CC(=O)NC1CCCCC1)Cc1ccc2c(c1)OCO2)Nc1ccccn1 | 0.1% | >57
COc1ccc(C(=O)N2CCCC(c3nc(-c4cc(OC)c(OC)c(OC)c4)no3)C2)cc1 (stereo not given) | 0.0% | >57
Cc1ccc(C(C#N)N2CCOCC2)cc1 (stereo not given) | 0.7% | >57
COC(=O)[C@@]1(Cc2ccc(F)cc2)[C@H]2c3cc(C(=O)N4CCCC4)n(Cc4ccc(C)c(F)c4F)c3C[C@H]2CN1C(=O)c1ccccc1 | ? | >57

Shown with values under each structure: six of the compounds above
Value order – LT uptake inh | Prx2 Sm inh
- CCS(=O)(=O)Nc1ccc(Cc2ccncc2)cc1
    · | >57
- CCc1ccc2oc(-c3cc(N)ccc3O)nc2c1
    ? | >57
- Clc1ccc(C(c2ccc(Cl)cc2)C(Cl)(Cl)Cl)cc1
    6.31µM* | ·
- CCOC(=O)C1CCCN(C(=O)C2CCN(S(=O)(=O)CC)CC2)C1 (stereo not given)
    -2.5% | >57
- CN(C)c1ccc(C2N(c3ccc(Cl)cc3)C(=O)C3CCCN32)cc1 (stereo not given)
    3.9% | >57
- COc1cc(OC)cc(-n2nnnc2SCC(=O)NCc2ccc3c(c2)OCO3)c1
    15.5% | >57

This is a subset; the hit share may differ from the screen's.
